2A StopGo: FMDV 2A StopGo reporter, luciferase signal; human cells with a luciferase reporter of 2A StopGo recoding; control for the full effect not named in the record; Potency, µM (titrated, usually from 57.9 µM), for the others: at the highest dose signal change, negative = less light; actives 1.2% (n = 410,000); AID 1159524; active = well fitted falling curve with a large enough effect; inconclusive = small, poorly fitted or top-dose-only effect; inactive = no such curve, though single readings can be large or run the other way; tested in HEK293T cells; note: % is set by controls: 0 for no effect and ±100 for the full control effect; nearly all actives have a fitted effect of over 45% in size; luciferase light after 4 h
MARV entry inh: inhibitors of Marburg virus binding or cell entry. AID 540276. actives 1.8% (n = 300,000). Marburg virus pseudotyped entry inhibition, cell reporter; control for the full effect not named in the record; about a third of the inactives were read at about 46 µM. Potency, µM (series often up to 37.8 µM), for the others: at the top dose activity change, negative = inhibition, usual class: inhibitors; active = well fitted inhibition curve with a large enough effect; inconclusive = small, poorly fitted or top-dose-only effect, or effect the other way; inactive = flat fitted curve, though single readings scatter; tested in HEK293 cells; about a fifth of its hits are not listed in these tables; note: % is set by controls: 0 for no effect and ±100 for the full control effect; luciferase read-out
Cruzain Triton: inhibitors of Trypanosoma cruzi cruzain with detergent. P25779. purified cruzain, Z-FR-AMC fluorescence, 0.01% Triton. Potency, µM, for inactives: max response, negative = inhibition, usual class: inhibitors. actives 0.43% (n = 200,000);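 note: plate controls were neutral wells for no effect and buffer without enzyme for full effect; nearly all actives have a fitted effect of over 40% in size; top concentration of the series not given in the record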
Target sequence (P25779 123-467 limits assumed): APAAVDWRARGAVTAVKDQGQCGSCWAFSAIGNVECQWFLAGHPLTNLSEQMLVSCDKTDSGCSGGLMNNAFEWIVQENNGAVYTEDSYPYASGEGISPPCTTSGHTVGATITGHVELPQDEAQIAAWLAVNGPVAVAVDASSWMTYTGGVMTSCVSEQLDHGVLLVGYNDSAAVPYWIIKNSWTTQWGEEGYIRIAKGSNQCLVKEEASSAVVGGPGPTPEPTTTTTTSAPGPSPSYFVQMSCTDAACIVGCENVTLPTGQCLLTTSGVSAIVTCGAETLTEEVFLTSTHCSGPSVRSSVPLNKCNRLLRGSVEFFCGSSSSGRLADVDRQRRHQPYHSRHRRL
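Detergent-containing arm of a paired screen for aggregation-based inhibition: 0.01% Triton X-100 present. Cruzain at 1.5 nM cleaved 2 uM Z-FR-AMC at pH 5.5 with 5 mM DTT; AMC fluorescence gain over 60 s measured activity.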
SARS PLpro yeast: blocks SARS-CoV papain-like protease in a yeast assay; AID 485353; actives 0.19% (n = 330,000); Potency, µM (series often up to 32.9 µM), inactives show top-dose activity, positive = growth rescue; S. cerevisiae expressing SARS-CoV PLpro, growth rescue; control for the full effect not named in the record; active means well fitted rising curve with a large enough effect; inconclusive means small, poorly fitted or top-dose-only effect; inactive means no such curve, though single readings can be large or run the other way; note: 0% is about no effect; nearly all actives have a fitted effect of over 55% in size; growth read by luminescence after 48 h
Cruzain noTriton: cruzain (T. cruzi) inhibition without detergent; P25779; purified cruzain, Z-FR-AMC fluorescence, no detergent; Potency, µM, for the others: max response, negative = inhibition, actives largely listed as inhibitors; actives 2.3% (n = 200,000); AID 1476;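 note: plate controls were enzyme without inhibitor for no effect and buffer without enzyme for full effect; nearly all actives have a fitted effect of over 40% in size; top concentration of the series not given in the record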
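Detergent-free condition (0.00005% Triton X-100) in acetate buffer pH 5.5 with DTT. 1.5 nM enzyme and compound were pre-mixed 15 min, then 2 uM Z-FR-AMC substrate added; reaction progress from fluorescence change between first and third reads (60 s).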
NS1 function inh: blocks influenza NS1 protein function | S. cerevisiae slowed by influenza A NS1, growth recovery by OD600 | Potency, µM (series often up to 46.1 µM), inactives show at the top dose activity, positive = more growth | actives 0.4% (n = 270,000); active means well fitted rising curve with a large enough effect; inconclusive means small, poorly fitted or top-dose-only effect; inactive means no such curve, though single readings can be large or run the other way; note: nearly all actives have a fitted effect of over 50% in size
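Recovery from NS1-induced slow growth read by OD600 in budding yeast switched to galactose assay medium (pH 6.0, -URA) at 1:100 dilution. Compound 23 nl per well; the matching strain lacking NS1 serves as control.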
RE007 growth inh: less growth of the S. pombe RE007 Vpr strain. S. pombe RE007 Vpr strain, BacTiter-Glo ATP luminescence, 24 h; control for the full effect not named in the record. Potency, µM (doses to about 92.2 µM), without a hit: at the highest dose activity change, negative = less growth. actives 0.21% (n = 360,000). AID 651644; active = well fitted falling curve with a large enough effect; inconclusive = small, poorly fitted or top-dose-only effect; inactive = no such curve, though single readings can be large or run the other way;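 note: % is set by controls: 0 for no effect and ±100 for the full control effect; nearly all actives have a fitted effect of over 50% in size; the assay follows cell death caused by Vpr and the record does not say whether a fall means rescue or toxicity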
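Fission yeast RE007 carrying one integrated HIV-1 vpr copy, seeded at OD 0.01 in PMG+AL medium with 23 nL pinned compound. Grown 24 h at 30 degrees; viability read by BacTiter-Glo luminescence after 5 min.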
Lassa entry inh: blocks Lassa virus binding to or entry into cells; actives 1.2% (n = 300,000); Potency, µM (series often up to 37.9 µM), for inactives: top-dose activity change, negative = inhibition, most hits filed as inhibitors; Lassa virus pseudotype entry inhibition, cell reporter; control for the full effect not named in the record; active means well fitted inhibition curve with a large enough effect; inconclusive means small, poorly fitted or top-dose-only effect, or effect the other way; inactive means flat fitted curve, though single readings scatter; tested in HEK293 cells; note: % is set by controls: 0 for no effect and ±100 for the full control effect; nearly all actives have a fitted effect of over 50% in size; luciferase read-out
The depositor's hits bear a star; ? = inconclusive; nt = no result given; & = joins results of further samples; [ ] = dose if it differs, or a comment. Unless noted, calls come from the whole dose curve; as a rule, active = well fitted curve in the direction sought with a large enough effect; inconclusive = small, poorly fitted or top-dose-only effect, or another doubt; inactive = no such curve, though single readings can be large; an effect the other way counts as inactive or inconclusive. Potency is the fitted concentration of half-maximal effect.

SMILES	2A StopGo	MARV entry inh	Cruzain Triton	SARS PLpro yeast	Cruzain noTriton	NS1 function inh	RE007 growth inh	Lassa entry inh
CSc1ccc(S(=O)(=O)NCc2ccccc2)cc1	51%[activator]	0%	2.0%	9%	9%	-17%	18%	22%
COc1ccc(/C=C/C2=CCN(C)CC2)cc1	51%[activator]	nt	nt	-1%	nt	1%	4%	nt
CNc1oc(-c2ccc(COc3ccc(C)cc3)o2)nc1C#N	-15%	0%[46.1 µM]	-7.8%	nt	-6%	nt	nt	-6%[46.1 µM]
Cc1ccc(NCc2ccccc2F)cc1	69%[activator]	-6%	-1.5%	0%	-9%	-14%	-18%	3%
COCc1nnc(NS(=O)(=O)c2ccc(Br)cc2)s1	38%[activator]	-11%	0.8%	3%	-5%	-14%[9.22 µM]	13%	8%
Cc1cccc(OCc2nc(C#N)c(NCc3ccccc3Cl)o2)c1	11%	-29%[46.1 µM]	-0.4%	nt	3%	nt	nt	16%[46.1 µM]
CCn1cc(S(=O)(=O)CC(=O)Nc2cc(C)ccc2C)c2ccccc21	-23%	nt	1.3%	3%	-4%	2%	1%	nt
Cc1onc(-c2ccccc2)c1C(=O)N1CCCN(C(=O)c2c(-c3ccccc3)noc2C)CC1	-4%	-9%&-9%	0.5%	2%	?	-4%	23%	13%
COc1ccc(Nc2c(-c3ccccn3)nc3ccc(Cl)cn23)cc1	0%	2%[46.1 µM]	-0.8%	nt	-9%	nt	nt	5%[46.1 µM]
CCC(CO)Nc1ccc(-c2n[nH]c(=O)c3ccccc23)cc1[N+](=O)[O-] (stereo unspecified)	?	nt	nt	4%	nt	0%	-1%	nt
CC1COc2ccccc2N1S(=O)(=O)c1cc(Cl)ccc1Cl (stereo unspecified)	-18%	?	nt	-4%	nt	-9%	-13%	20%[46.1 µM]
CCCn1c(O)c(CN2CCCCC2)c(C)c(C#N)c1=O	-10%	7%	-3.0%	1%	9%	13%	33%	9%
N#Cc1c(N)nc2c(c1N)CC(C(F)(F)F)O2 (stereo unspecified)	-8%	10%[14.2 µM]	nt	-1%	nt	8%	-1%	0%
Nc1nc(N2CCN(C(c3ccccc3)c3ccccc3)CC2)n[nH]1	-2%	-14%[46.1 µM]	nt	-2%	nt	1%	11%	-16%
O=S(=O)(NCCN1CCCC1)c1ccc(Br)cc1	-15%	nt	nt	-5%	nt	1%	-17%	nt
Cc1ccc(C(=O)c2cn(-c3ccc(F)c(Cl)c3)nn2)cc1	23%	-2%	5.5%	2%	-8%	-1%	21%	?
O=C(Oc1ccccc1F)C1CCN(C(=O)c2ccc(F)cc2)CC1	-15%	-9%	nt	-2%	nt	nt	1%	19%
CCCc1cc(=O)[nH]c(SCC(=O)c2ccc3c(c2)OCCO3)n1	0%	15%	-11%	3%	-8%	11%	0%	2%
O=C(N/N=C\c1ccc2c(c1)OCO2)c1cncc(Br)c1	38%[activator]	-5%[46.1 µM]	nt	2%	nt	-12%	2%	-20%[46.1 µM]
Cc1ccc(C(=O)Nc2nc(-c3cccnc3)cs2)o1	10%	-5%	0.3%	-1%	-6%	11%	-28%	10%
COc1ccc(-n2c(SCC(=O)Nc3ccc(NC(C)=O)cc3)nc3c([nH]c4ccccc43)c2=O)cc1OC	-21%	-9%	nt	9%	nt	-14%	-11%	3%
CCCCc1c(O)n2c(nc3ccccc32)[nH]c1=O	10%	13%[46.1 µM]	-5.8%	0%	6%	-51%	10%	8%
CC1=CC(C)(C)N(C(=O)CNC2CCCC2)c2cc(C)ccc21	0%	nt	nt	0%	nt	-5%	-4%	nt
COc1ccccc1CN1C[C@@H]2C[C@@H](c3ccc(Cl)cc3)N3CCC[C@@]23C1=O	-2%	?	nt	-2%	nt	7%	-5%	-8%
CCc1ccccc1NC(=O)c1ncoc1-c1ccco1	0%	nt	-4.4%	nt	3%	nt	nt	14%[46.1 µM]
O=C1Nc2ccc(F)cc2C12Nc1ccccc1-c1nnc(SCc3ccccc3F)nc1O2 (stereo unspecified)	nt	1%	-7.4%	-31%	0%	-7%	-1%	2%
O=C(O)c1ccc(CN(c2ccccn2)S(=O)(=O)c2ccccc2)cc1	nt	-3%	-6.4%	3%	-11%	8%	-2%	14%
Cc1cc(NC(=O)c2cc(C)on2)no1	26%	0%	0.3%	6%	5%	-8%	-7%	-10%
CCOc1cc(/C=C2\C(=N)N3N=C(N4CCCCC4)SC3=NC2=O)ccc1OC(=O)c1ccco1	-18%	nt	nt	-1%	nt	7%	-1%	nt
CC(=O)c1ccc(N=Nc2c(C)[nH][nH]c2=O)cc1	15%	0%[46.1 µM]	nt	nt	nt	nt	4%	19%
Cc1ccccc1NC(=O)CSc1nc(=O)n(CCN2CCOCC2)c2c1CCCC2	12%	?	nt	1%	nt	nt	0%	?
CC[C@@]1(c2cccc(C)c2)C(=O)N(C(=O)OC)N1C(=O)OC	-21%	nt	nt	5%	nt	7%	9%	nt
COc1cccc(/C=C2\SC(=S)N(CC(=O)N(C)C3CCS(=O)(=O)C3)C2=O)c1 (stereo unspecified)	38%[activator]	nt	nt	-2%	nt	11%	2%	nt
CC(=O)c1ccc(NC(=O)c2c3c(nc4ccccc24)C(=O)N(C2CCCCC2)C3)cc1	-12%	nt	-0.6%	nt	-7%	nt	nt	-14%[46.1 µM]
CCOC(=O)c1nn(-c2ccccc2)c2nc(-c3ccc(OC)cc3)c(C#N)c(=O)n12	-19%	?	-7.2%	2%	-12%	2%	-8%	2%
O=C(CN1CCN(S(=O)(=O)c2cc(Cl)ccc2Cl)CC1)Nc1ccc2c(c1)OCCO2	-12%	12%&12%	-5.5%	14%	?	-44%	-10%	-9%
Cc1cccc(/C(N)=N/OC(=O)c2ccc(F)cc2)c1	6%	-6%	-1.6%	-81%	-8%	-59%	?	?
Cc1cc(C(F)(F)F)nc(SCC(=O)Nc2ccccc2)n1	-19%	23%	3.3%	-6%	-1%	7%	20%	16%
Cc1ccccc1OCC(=O)N(Cc1ccc(N(C)C)cc1)CC1CCCO1 (stereo unspecified)	4%	-11%[46.1 µM]	-5.5%	nt	0%	nt	nt	?
CCCOc1ccc(C2c3c(oc4cc(C)c(C)cc4c3=O)C(=O)N2CCCN2CCOCC2)cc1 (stereo unspecified)	0%	-2%	-5.4%	-7%	0%	-30%	-1%	nt
Cc1ccnc(NCc2ccc(Br)cc2)c1	26%	nt	nt	1%	nt	1%	-9%	nt
CCc1ccc(C(=O)c2cn(CC(=O)Nc3ccc(OC)c(Cl)c3)c3nc(C)ccc3c2=O)cc1	0%	nt	-0.8%	nt	-11%	nt	nt	5%[46.1 µM]
CSc1ccc(CCNC(=O)C2CCCN(S(=O)(=O)N(C)c3ccc(F)cc3)C2)cc1 (stereo unspecified)	35µM*	nt	-4.1%	nt	14%	nt	nt	-18%[46.1 µM]
C=CCn1c(COc2cccc(C)c2)nnc1SCC(=O)c1c[nH]c2c(CC)cccc12	-21%	?	0.2%	-8%	-23%	4%	7%	3%
COC(=O)C1C(=O)CC(C)(O)C(C(=O)OC)C1c1ccc2c(c1)OCO2 (stereo unspecified)	nt	10%	2.5%	0%	-3%	1%	?	2%
Cc1ccc(OCC(=O)NC(=S)Nc2cccc(C)n2)cc1	16%	3%	0.5%	-24%	-23%	-8%	-16%	-4%
Cc1ccccc1Nc1c(-c2ccc(Cl)cc2)nc2c(C)cccn12	-11%	?	-1.8%	nt	3%	nt	nt	10%[46.1 µM]
COc1ccc(CCNC(=O)c2cccn2C)cc1	55%[activator]	nt	nt	-1%	nt	5%	-4%	nt
CC(=O)NC(Cc1ccccc1F)C(=O)NC1CCN(c2ncccc2[N+](=O)[O-])CC1 (stereo unspecified)	-3%	15%	nt	-1%	nt	-4%	7%	-4%
CC(C)C(=O)NC(=S)NCC(=O)c1ccccc1	23%	-1%	3.2%	12%	1%	-9%	-26%	16%
Carrying on:
SMILES	2A StopGo	MARV entry inh	Cruzain Triton	SARS PLpro yeast	Cruzain noTriton	NS1 function inh	RE007 growth inh	Lassa entry inh
COc1ccc(C(=O)C[N+]2(C)CCOCC2)cc1	nt	15%	1.3%	-2%	4%	-9%	-1%	23%
CCOc1ccc(C(=O)Nc2cc(-c3nc4ccccc4[nH]3)ccc2C)cc1[N+](=O)[O-]	-22%	?	-0.8%	-13%	?	-239%	-2%	?
Cc1cccc(-n2ccc(=O)c(C(=O)Nc3ccc(S(=O)(=O)Nc4nccs4)cc3)n2)c1	49%[activator]	nt	nt	1%	nt	7%	-7%	nt
Cc1nn(CC(C)C)c(Cl)c1C(=O)N(C)CC(=O)Nc1c(Cl)cccc1Cl	-20%	-5%	nt	3%	nt	-2%	6%	?
COc1ccc(C(C(=O)NCC2CCCO2)N(C(=O)Cn2nnc3ccccc32)c2ccc(NC(C)=O)cc2)cc1 (stereo unspecified)	27%	10%[46.1 µM]	nt	2%	nt	1%	-20%	4%[46.1 µM]
NS(=O)(=O)c1ccc(CCNC(=O)CSc2nc3ccccc3c(=O)n2CCN2CCOCC2)cc1	20%	-14%[46.1 µM]	nt	-2%	nt	nt	0%	-4%[46.1 µM]
Cc1cc(C)nc(NCC(O)CNc2ccccc2Cl)n1 (stereo unspecified)	?	-46%	0.1%	5%	0%	-7%	-21%	-18%
CCc1cc(-c2[nH]ncc2-c2nc3ccccc3n2C)c(O)cc1O	-45%	nt	nt	0%	nt	4%	3%	nt
CCC1CCc2sc(C(=O)NNC(=O)c3ccncc3)cc2C1 (stereo unspecified)	-4%	10%	nt	nt	nt	nt	-2%	-14%
Cc1cccc(-n2ccnc2SCC(=O)Nc2nc3ccccc3s2)c1	8%	nt	-6.4%	nt	-2%	nt	nt	8%[46.1 µM]
CCOc1ccccc1NS(=O)(=O)c1ccc(N2CCCCS2(=O)=O)cc1	?	nt	-0.9%	nt	3%	nt	nt	1%[46.1 µM]
Cc1ccc(N2C(N)=C(C#N)C(c3cccnc3)C3=C2CCCC3=O)cc1 (stereo unspecified)	4%	-23%	-3.5%	-5%	-7%	-4%	19%	-17%

Screens (PubChem BioAssay)

Outcome played no part in choosing rows; any-hit rate near 4.7%.
